# ClpP mod = qHTS Assay for Activators of ClpP. ATP-dependent Clp protease proteolytic subunit (Bacillus subtilis (strain 168)), P80244. purified B. subtilis ClpP, FRET peptide cleavage, 20 min. Potency, µM (doses to about 57.5 µM), for inactives: at the top dose activity change, negative = active. actives 1.9% (n = 340,000). AID 651965, 2013; active = well fitted falling curve with a large enough effect; inconclusive = small, poorly fitted or top-dose-only effect; inactive = no such curve, though single readings can be large or run the other way; further: potency means the concentration at half of the fitted maximal effect; the source files actives as falling curves though it sought activators and does not explain the sign; nearly all actives have a fitted effect of over 65% in size; many hits overshoot -100%
# Target sequence (P80244 whole entry, looked up): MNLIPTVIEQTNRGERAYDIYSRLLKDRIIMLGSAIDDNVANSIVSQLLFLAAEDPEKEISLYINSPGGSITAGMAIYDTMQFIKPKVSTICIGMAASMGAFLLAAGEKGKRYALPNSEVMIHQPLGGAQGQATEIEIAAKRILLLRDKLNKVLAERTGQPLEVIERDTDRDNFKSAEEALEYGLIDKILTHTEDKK
#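 Buffer: 100 mM Tris/HCl pH8, 100 mM KCl, 0.05% low protease BSA, 2.5% glycerol, 0.01% Tween-20. ClpP 10 microg/mL final; 20 min RT; delta FRET normalized to ADEP and DMSO controls.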
# gsp ag = gsp mutant agonism. gsp mutant cells, cAMP HTRF, 30 min; control for the full effect not named in the record. Potency, µM (titrated, usually from 76.9 µM), without a hit: at the highest dose activation (cAMP increase), most hits filed as activators. actives 0.13% (n = 340,000); active = well fitted activation curve with a large enough effect; inconclusive = small, poorly fitted or top-dose-only effect, or another doubt; inactive = no such curve, though single readings can be large or run the other way; cell line not stated here;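 further: phosphodiesterase inhibitor Ro 20-1724 added with compounds to block cAMP breakdown; potency means the concentration at half of the fitted maximal effect; nearly all actives have a fitted effect of over 60% in size; about a fifth of the inactives were tested at one dose only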
#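 Cells stably selected in G418 were plated at 2000/well, grown 16-24 hr, then given compounds in DMSO with the PDE inhibitor […] (300 uM solution added) for 30 min at 37C; cAMP was read by HTRF.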
# PINK1 expr mod = modulators of PINK1 expression | PINK1 immunofluorescence, high-content cytometry, 24 h | Potency, µM (series often up to 76.6 µM), inactives show top-dose activation (PINK1 increase), hits mostly activators | actives 0.2% (n = 410,000); active = well fitted activation curve with a large enough effect; inconclusive = small, poorly fitted or top-dose-only effect; inactive = flat fitted curve, though single readings scatter; cell line not stated here;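 further: potency means the concentration at half of the fitted maximal effect; % of control where 0% means no effect; nearly all actives have a fitted effect of over 65% in size; a mitochondrial uncoupler was the plate control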
#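 Decision-based qHTS: stable cells, 24 h exposure to five compound concentrations, CCCP as control. Fixed cells stained for PINK1 plus nuclear, mitochondrial and cell markers, cytometer read.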
# Menin MLL FP FL = displaces fluorescein MLL peptide from human menin; Fluorescence polarization, fluorescein-MLL peptide displacement from menin; FP activity change, % at 61.4 µM; 290,000 tested, under 10 active; AID 1766; inconclusive = falling polarisation curve, or a change in total fluorescence; inactive = total fluorescence flat and polarisation flat or rising; no compound was filed as active; the % refers to the polarisation; negative = inhibition;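 further: % of control where 0% means no effect; inhibitors lower the polarisation; unlabelled MLL peptide was the positive control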
# gsp antagonist = antagonists of gsp mutant (McCune-Albright syndrome) | gsp-mutant cells, cAMP HTRF, 30 min; control for the full effect not named in the record | Potency, µM (doses to about 76.9 µM), for inactives: at the top dose activity change, negative = inhibition, actives largely listed as inhibitors | actives 0.4% (n = 340,000) | AID 624288; active = falling curve of any shape with a large fitted effect; inconclusive = falling curve, mostly with a smaller effect; inactive = flat or rising curve; cell line not stated here;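 further: intracellular cAMP measured with PDE inhibitor Ro 20-1724 present during compound exposure; potency means the concentration at half of the fitted maximal effect; on the % scale 0 is the no-effect control and ±100 the full control effect; nearly all actives have a fitted effect of over 65% in size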
#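 HTRF cAMP read-out (cAMP-d2 plus anti-cAMP antibody-K in lysis buffer, 30 min RT). Before lysis, cells are exposed to compounds with […] for 30 min at 37C in DPBS containing Ca/Mg, BSA and Tween 20.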
# Sfp inh = inhibitors of Bacillus subtilis Sfp phosphopantetheinyl transferase | Biochemical Sfp PPTase activity, qHTS | actives 3.5% (n = 310,000) | Potency, µM, for inactives: max response, negative = inhibition, usual class: inhibitors; active means well fitted inhibition curve with a large enough effect; inconclusive means small, poorly fitted or top-dose-only effect, or another doubt; inactive means no such curve, though single readings can be large or run the other way;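 further: the enzyme is Sfp with the accession as filed and its product quenches rhodamine fluorescence; potency means the concentration at half of the fitted maximal effect; 0% = enzyme reaction without inhibitor and -100% = no enzyme wells; top concentration of the series not given in the record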
#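 Fluorescence-quenching assay with 15 nM Sfp, 5 uM rhodamine-CoA and 12.5 uM BHQ-2-labelled ybbR peptide in pH 7.6 Hepes/MgCl2 buffer. Enzyme was pre-incubated with compound for 15 min at room temperature. Rate was taken from the 30-min fluorescence change (525/598 nm).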
# D2 ag = human D2 receptor agonism in beta-arrestin assay. P14416. DiscoveRx PathHunter D2 beta-arrestin, luminescence, 90 min; 100% = 57 uM dopamine signal. activation, % (test concentration not listed). actives 0.084% (n = 360,000); in the data active = activation above about 40%; inconclusive = about 15% to 40%; inactive = below about 15%; further: compound concentration not given in the record; the text of the record calls up to 30% inactive
# Target sequence (P14416 whole entry, looked up): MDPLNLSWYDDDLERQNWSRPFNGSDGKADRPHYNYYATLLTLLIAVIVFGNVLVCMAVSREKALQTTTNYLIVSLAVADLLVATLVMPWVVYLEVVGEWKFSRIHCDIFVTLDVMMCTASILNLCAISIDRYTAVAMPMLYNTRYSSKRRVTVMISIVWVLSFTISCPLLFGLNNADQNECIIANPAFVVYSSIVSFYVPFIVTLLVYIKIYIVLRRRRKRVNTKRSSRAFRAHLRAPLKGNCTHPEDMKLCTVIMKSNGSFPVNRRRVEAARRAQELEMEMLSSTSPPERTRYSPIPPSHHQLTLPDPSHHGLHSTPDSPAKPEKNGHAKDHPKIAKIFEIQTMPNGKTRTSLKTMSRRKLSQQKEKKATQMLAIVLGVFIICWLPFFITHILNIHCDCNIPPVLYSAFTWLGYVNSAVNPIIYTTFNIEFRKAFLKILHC
#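 Agonist mode: compounds alone added to overnight-plated D2 PathHunter cells for 90 min at 37 C, with 57 uM final dopamine (EC100) defining full response. Beta-arrestin recruitment detected by chemiluminescent reagent, read after 1 h at ambient temperature.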
# The depositor's hits bear a star; ? = inconclusive; nt = no result given; & = joins results of further samples; [ ] = another dose, or the depositor's remark.
SMILES,ClpP mod,gsp ag,PINK1 expr mod,Menin MLL FP FL,gsp antagonist,Sfp inh,D2 ag
Cc1ccc(S(=O)(=O)N(CC(O)CN(C)C)c2ccccc2)cc1 (centres undefined),1.9%,8%,1.7%,0.7,13%,2%,-4.7
Cc1ccc(NC(=O)CCCN2C(=O)NC(C)(C)C2=O)cc1,0.3%,-17%,0.4%,nt,7%,nt,-2.6
Cc1ccc(NC(=O)CCc2c(C)nn(-c3ccc(N4CCOCC4)nn3)c2C)c(C)c1,-2.8%&-0.3%,29%,-1.1%&1.0%,4.2,0%,4%,-3.2
Cn1c(SCC(=O)c2ccc3c(c2)Cc2ccccc2-3)nnc1-c1cccc(N)c1,-2.9%,?,3.2%,0.1,-11%,13%,0.8
Cc1csc(NC(=O)CCc2ccc(S(=O)(=O)N3CCOCC3)cc2)n1,-4.3%,-4%,-1.9%,7.4,-2%,9%,8.6
c1ccc2oc(-c3[nH]ncc3CN3CCC(N4CCSCC4)CC3)cc2c1,-11%,?,-0.7%,-6.0,5%,13%,-2.6
COc1ccc(OC)c(-n2c(SCC(=O)Nc3cc(C)on3)nnc2-c2c[nH]c3ccccc23)c1,-6.4%,-13%,-0.3%,2.3,-8%,20%,-2.0
C=CCN(CC=C)C(=S)NC(=O)c1ccc(C)c(Br)c1,1.2%,-19%,11%,nt,6%,-9%,-5.4
O=C(Nc1ccc(Cl)cc1)C1CCCN(c2cnccn2)C1 (centres undefined),-9.8%,-3%,1.3%,nt,3%,10%,0.6
Cc1cccc(N2CCN(CC(O)COc3ccc(Cl)cc3)CC2)c1 (centres undefined),-1.0%,-4%,12%,-3.8,4%,?,-0.1
Cc1nnsc1SC(C)C(=O)O (centres undefined),0.4%,24%,0.8%,4.0,13%,28%,-1.4
COc1nc(N)nc2c1ncn2C1OC(CO)CC1O (centres undefined),1.5%,-19%,2.7%,nt,12%,nt,-0.1
CCCCOC(=O)Nc1cccc(C(C)=O)c1,-13%,-57%[inhibitor],1.5%,3.2,6%,0%,-0.5
CCOc1ccc(N)c(SSc2cc(OCC)ccc2N)c1,-2.0%,?,-1.1%,?,-13%,2.8µM*,-22
N#C/C(=C/C1=C(N2CCOCC2)C(=C/c2ccc(Cl)cc2Cl)/CC1)C(=O)Nc1ccccc1F,nt,12%,3.4%,nt,-11%,nt,1.2
Oc1c(Cl)cc(Cl)cc1C=Nc1cc(C(F)(F)F)ccc1N1CCc2ccccc2C1,-5.9%,-31%[inhibitor],?,?,-7%,-7%,-5.7
O=C(Cc1ccccc1)NNC(=S)Nc1ccc(Cl)cc1,-2.6%,-62%[inhibitor],3.4%,-1.1,7%,8%,-6.7
CSCC[C@H](NC(=O)[C@@H]1Cc2ccccc2CN1)C(=O)Nc1ccc2c(c1)OCCO2,-3.3%,4%,0.0%,-0.1,7%,4%,4.7
COc1cc2c(C#CCCCO)c(-c3ccsc3)oc(=O)c2cc1OC,3.9%,-9%,2.7%,nt,4%,nt,3.5
COCCCNC(=S)NNC(=O)c1ccc2c(c1)OCO2,3.7%,-25%,1.0%,1.7,7%,14%,-0.4
Nc1c(C(=O)Nc2ccc(F)cc2)sc2nc(-c3ccco3)ccc12,-13%,?,9.9%,?,13%,7.9µM*,0.6
COc1ccc(C2C(C#N)=C(N)Oc3cc(C)n(CCN4CCOCC4)c(=O)c32)cc1OC (centres undefined),-0.9%,-26%,0.6%,-0.3,-1%,15%,-1.0
Cc1ccc(C(=O)Nc2ccccc2Oc2ccccc2)cc1[N+](=O)[O-],-1.8%,14%,-0.8%,-1.2,-1%,12%,0.9
Cc1cc(/C=C2\SC(=S)NC2=O)c(C)n1C,-6.8%,-12%,nt,?,-15%,-8%,-4.9
COc1ccc(C(=O)N2CCC(C(=O)Nc3ccc4c(c3)OCO4)CC2)cc1,-2.9%,-37%[inhibitor],0.3%,0.2,2%,4%,-0.9
Cc1ccc2c(cnn2C(=O)CCC(=O)NC2CCCC2)c1,-0.6%,-16%,-0.1%,1.1,7%,-3%,-1.3
COC(=O)CC1C(=O)NCCN1C(=O)c1oc2c(C)c(C)ccc2c1C (centres undefined),-1.9%,-20%,-1.1%,nt,nt,nt,-3.4
Fc1ccc(-c2nc3c(-c4ccc(F)cc4)cnn3cc2CCN2CCOCC2)cc1,-1.3%,0%[15.4 µM],7.3%,-6.2,-11%,17%,-2.6
NC(=O)C1(N2CCCCC2)CCN(C(=O)CSc2nc(C(F)(F)F)cc(=O)[nH]2)CC1,-2.2%,-31%[inhibitor],0.7%,4.3,2%,-1%,-3.0
NC(=O)C1CCN(C(=O)c2cccc(S(=O)(=O)N3CCc4ccccc4C3)c2)CC1,nt,-5%[15.4 µM],4.5%,-3.2,nt,14%,4.1
CN1C(=O)Cn2c1nc1ccccc12,-1.4%,-3%,0.0%,1.2,5%,11%,-1.3
COc1cc(CC(=O)Nc2cc(S(C)(=O)=O)ccc2Cl)cc(OC)c1OC,nt,-49%[inhibitor],-0.1%,-2.4,0%,-5%,-2.4
O=C(Cc1ccsc1)NNC(=O)c1ccccc1Cl,nt,9%[15.4 µM],0.3%,nt,9%,nt,1.8
Cc1cc(-c2ccccc2)n(-c2ccc(C(=O)N3CCN(c4ncccn4)CC3)cc2)n1,-8.7%,19%,2.1%,5.2,-17%,0%,1.0
COc1ccc(CCN(C)C(=O)CSc2nc3ncc(Cl)cc3[nH]2)cc1OC,-3.6%,6%,0.5%,-0.2,-7%,12%,-1.8
COC(=O)c1c(NC(=O)CN2C(=O)C(=O)N(CC(C)C)C2=O)sc2c1CCCCC2,-2.7%,-6%[15.4 µM],-3.0%,-3.4,-9%,-29%,6.2
CN(Cc1ccccc1)CC(O)COc1ccc(CNCCCOc2cccnc2)cc1 (centres undefined),1.2%,-56%[inhibitor],-1.1%,0.3,15%,-3%,1.4
Cc1cccc(OCC(=O)NCCNC(=O)c2cccnc2)c1,nt,?,1.3%,-3.1,5%,4%,-2.6
CC1CCCC(NS(=O)(=O)c2ccc3c(c2)OCCO3)C1C (centres undefined),-0.4%,18%,-0.2%,-0.3,-5%,-14%,-3.0
COCc1[nH]nc2c1C(c1cc(OC)c(O)c(OC)c1)C(C#N)=C(N)O2 (centres undefined),0.2%,-8%,-2.2%,?,18%,-23%,-2.8
CC[C@]12c3[nH]c4ccc(OC)cc4c3CCN1C(=O)C(CC(=O)NCc1ccco1)C[C@@H]2C(=O)N1CCN(C(=O)C2CC2)CC1 (some centres undefined),-0.5%,nt,0.6%,nt,-1%,nt,-1.8
C=CCC(=O)N1CCC(n2nccc2NC(=O)CCOc2ccccc2)CC1,-0.2%,?,-0.4%,nt,-1%,2%,-1.9
COc1ccc(NC(=O)CCNC(=O)Cn2ccc3ccccc3c2=O)cc1Cl,nt,0%[15.4 µM],1.8%,11,8%,-11%,-1.3
c1ccc(Cn2nnnc2CN2CCN(c3ncccn3)CC2)cc1,0.0%,-38%[inhibitor],-2.2%,2.2,-15%,25%,-1.7
Cc1ccc2c(n1)sc1c(-c3ccccc3)c(C#N)c(N)nc12,35µM*,12%,7.7%,1.4,9%,-23%,-2.0
CN(C)C(CNC(=O)c1cccc(C#N)c1)c1ccco1 (centres undefined),nt,2%,-1.5%,-2.1,4%,-8%,-1.4
Fc1ccc(F)c(NC2=NCCCCC2)c1,nt,0%[15.4 µM],1.1%,-0.2,17%,22%,-4.6
OCC(O)CN1CCCC1 (centres undefined),nt,3%[15.4 µM],0.6%,-1.1,3%,9%,-2.1
COc1ccc(NC(=O)C2C3CCC(C3)C2C(=O)O)cc1OC (centres undefined),0.9%,17%,0.3%,-0.3,10%,6%,-2.1
CCn1c(SCC(=O)Nc2oc(C)c3c(C)n[nH]c(=O)c23)nnc1-c1ccco1,-5.6%,25%,-1.4%,nt,nt,nt,-6.2
O=C(COC(=O)c1ccc(O)cc1O)NC1CCCCCC1,-0.2%,?,0.8%,nt,-14%,nt,-2.7
Cc1ccc(-c2cc(C(=O)N/N=C/c3ccc(F)cc3)n[nH]2)o1,nt,11%[15.4 µM],0.0%,2.3,-11%,5%,1.9
COc1ccc(NC(=O)c2ccccc2NC(=O)C2CCCO2)cc1 (centres undefined),-1.1%,-33%[inhibitor],1.2%[38.3 µM],-2.1,1%,-11%,0.5
COc1ccc(Br)cc1/C=N/Nc1cccc(C(=O)O)c1,-3.7%,-9%,2.4%,2.7,15%,7%,0.9
NS(=O)(=O)c1ccc(CNC(=O)CCCSc2ccccc2)cc1,-3.5%,-5%[15.4 µM],3.1%,2.5,3%,9%,-5.1
O=C(Cc1cccs1)N1CCN(S(=O)(=O)c2ccccc2)CC1,0.9%,-28%,-0.9%,2.5,14%,35%[activator],-3.0
O=[N+]([O-])C(/C=C(/Cl)[N+](=O)[O-])=C(N1CCCCC1)N1CCCCC1,nt,6%[15.4 µM],-0.6%,16,-8%,5%,-3.3
COc1ccc(CC(=O)OCCN(C)C)cc1,1.6%,-24%,1.0%,6.2,6%,-6%,-3.0
CN(C)c1ncnc2c1ncn2C1CCCCO1 (centres undefined),nt,6%,0.7%,nt,10%,nt,-3.3
COc1ccc(C(=O)NCCc2nnc(SCC(=O)Nc3ccccc3C(C)C)n2C)cc1,0.4%,-34%[inhibitor],-1.2%[38.3 µM],0.0,5%,11%,-0.2

# Additional structures:
SMILES,ClpP mod,gsp ag,PINK1 expr mod,Menin MLL FP FL,gsp antagonist,Sfp inh,D2 ag
O=C(Cn1c(=O)oc2ccccc21)N1CCN(S(=O)(=O)c2ccccc2)CC1,0.0%,3%,-0.3%,nt,1%,nt,-0.7
CCOC(=O)C1CCN(C(=O)c2ccccc2)c2scc(-c3ccccc3)c2C1=O (centres undefined),-15%,-3%,0.7%,nt,nt,nt,-1.3
CN(C)CCCN(Cc1cc2cc3c(cc2[nH]c1=O)OCO3)C(=S)Nc1ccccc1,nt,9%[15.4 µM],2.5%,-4.7,-7%,11%,0.9
CN(CC(=O)Nc1ccccc1Br)C(=O)c1cc2c(s1)CCCCC2,-9.6%,?,4.1%,nt,-18%,nt,-3.8

# Compound activity from PubChem.

# Rows were taken by chance; overall some 5.1% were active at least once.
